YopH inh: YopH tyrosine phosphatase inhibitors, primary screen, biochemical, fluorescence Ex485/Em525; YopH tyrosine phosphatase [Yersinia enterocolitica]; inhibition, %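 (about 10 µM by stock and volumes)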; 0.16% of 140,000 active; AID 898, 2007;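 active = inhibition of 50% or more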;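 also: controls were vehicle for no effect and minimum signal wells for full effect; inactives centre near -20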
RecA intein inh: Mtb RecA intein splicing inhibitors, primary screen, biochemical, fluorescence, HTS; cell-free RecA intein splicing; Protein RecA (Mycobacterium tuberculosis (strain ATCC 25618 / H37Rv)), P9WHJ3; inhibition, %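 (about 9 µM by stock and volumes)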; 0.75% of 290,000 active; in the data active = inhibition above about 30%; inconclusive = no clear call, values can overlap the other calls;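 also: 0% = vehicle wells and 100% = reference inhibitor control wells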
Target sequence (P9WHJ3 whole entry, looked up): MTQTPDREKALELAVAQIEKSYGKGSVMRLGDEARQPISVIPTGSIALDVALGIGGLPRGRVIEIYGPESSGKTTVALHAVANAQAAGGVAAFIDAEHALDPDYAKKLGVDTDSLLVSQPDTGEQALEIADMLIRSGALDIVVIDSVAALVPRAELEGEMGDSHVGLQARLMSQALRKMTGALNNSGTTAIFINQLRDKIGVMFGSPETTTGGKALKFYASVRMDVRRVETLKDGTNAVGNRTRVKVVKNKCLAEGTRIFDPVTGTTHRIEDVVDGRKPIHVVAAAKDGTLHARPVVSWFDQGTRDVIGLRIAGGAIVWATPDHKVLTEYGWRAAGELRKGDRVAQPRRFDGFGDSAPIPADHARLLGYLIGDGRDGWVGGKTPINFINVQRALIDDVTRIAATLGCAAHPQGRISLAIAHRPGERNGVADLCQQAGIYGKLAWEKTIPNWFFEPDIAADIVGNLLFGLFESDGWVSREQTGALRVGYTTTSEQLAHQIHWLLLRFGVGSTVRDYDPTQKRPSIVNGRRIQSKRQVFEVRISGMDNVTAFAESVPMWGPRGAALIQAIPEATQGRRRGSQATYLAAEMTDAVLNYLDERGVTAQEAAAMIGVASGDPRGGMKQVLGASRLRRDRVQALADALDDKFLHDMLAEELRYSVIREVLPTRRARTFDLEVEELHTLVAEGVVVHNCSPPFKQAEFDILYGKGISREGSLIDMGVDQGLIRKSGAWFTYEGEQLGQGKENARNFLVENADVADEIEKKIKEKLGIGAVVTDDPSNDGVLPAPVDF
Mtb growth: M. tuberculosis H37Rv growth inhibitors, H37Rv strain (AID 1626) | M. tuberculosis H37Rv growth inhibition; higher % means a stronger effect | inhibition, % at 10 µM, or IC50 in µM where a hit was titrated | 0.95% of 220,000 active;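 active = confirmed in a dose series; inconclusive = inhibition above 80% but not taken into the dose series; inactive = below 80% or under 30% at every dose of the series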;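 also: bacteria incubated seven days before Alamar blue readout; 0% = bacteria only wells and 100% = bacteria with antibiotic wells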
Mtb bLac sens: beta-lactam sensitization of Mtb H37Rv, H37Rv; 0.27% of 330,000 active; inhibition, % at 25 µM; M. tuberculosis H37Rv growth with meropenem, percent inhibition; hits of this screen are not shown here;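 active = about 74% or more and at least 40 points above the plate without the antibiotic, then above 30% in a dose series; inconclusive = first-round hits that could not be retested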;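 also: growth measured after seven days incubation then overnight dye step; 0% = bacteria only wells and 100% = bacteria with antibiotic; twin plates without the antibiotic show which effects depend on it; some results filed as inactive read as strong as hits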
Arbovirus anti: antivirals against arbovirus infection, primary screen, cell-based, full library, 10K replicate subset. arbovirus infection cell-based antiviral screen. inhibition, % at 10 µM. 0.37% of 200,000 active. AID 1251, 2008;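 active = inhibition from about 30%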;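 also: bluetongue infection of BSR cells; cell survival read as ATP light after 72 h; 0% = infected wells without compound and 100% = uninfected wells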
Arbovirus anti repeat: also measured in Arbovirus anti; calls as there; inhibition, %; measured here: 10K subset replicate screen; many hits read low in the repeat;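 first of two repeat runs on a subset; 0% = infected and 100% = uninfected wells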
Starred values were filed as active, the others as inactive; i = inactive; ? = inconclusive; . = no result given. Not all compounds are listed. The share of hits here may be higher or lower than overall.

SMILES	YopH inh	RecA intein inh	Mtb growth	Mtb bLac sens	Arbovirus anti	others
COc1cc(C2CC(=O)Nc3c2c(=O)nc2c(C)cccn32)cc(OC)c1OC (stereo not given)	.	-2.7	0.6%	2.7	5.5
CN1/C(=C\C(=O)COC(=O)c2ccc(O)cc2)C(C)(C)c2ccccc21	.	1.1	0.1%	-3.0	.
CNc1nnc(-c2ccc(N(C)C)cc2)s1	-8.6	.	5.2%	2.6	-7.0
C=CCN1C(=O)c2cccc3c(Br)ccc(c23)C1=O	.	-0.5	-6.6%	3.9	3.3
COc1ccc(C2SCC(=O)N2c2ccc(OC)cc2)cc1 (stereo not given)	.	-0.1	.	-1.7	.
Cc1ccc2cc(C#N)c(SCC(=O)N3CCCC3)nc2c1	.	0.5	-3.8%	1.7	.
Cc1ccc(C(=O)N/C(=C\c2ccco2)C(=O)N2CCCCC2)cc1	.	1.1	.	-2.2	.
O=C(CCS(=O)(=O)c1ccc2c(c1)NC(=O)CS2)NCc1ccccc1Cl	.	-2.2	.	-12.2	.
NC(=O)C1CCN(C(=O)c2ccccc2CCc2ccccc2)CC1	.	0.8	.	-0.7	.
O=C(/C=C/c1cccnc1)c1ccc(NC(=O)c2cccc(Br)c2)cc1	-32.2	8.9	8.8%	90.3	-2.7
CCOC(CNC(=O)C1CCN(S(=O)(=O)c2ccc3nc4c(c(C(=O)O)c3c2)CCCCC4)CC1)OCC	.	-3.7	.	-6.9	.
COc1ccc(NC(C(=O)Nc2cccc(C(C)=O)c2)c2ccccc2)cc1 (stereo not given)	-38.9	1.3	29.4%	14.3	-2.5
COC(=O)c1cc(OC)ccc1-c1ccc(OC)cc1	2.4	4.5	4.9%	9.3	-20.4
CC(C)CNS(=O)(=O)c1ccc(CCC(=O)NCc2ccncc2)cc1	.	1.4	-5.3%	0.4	9.1
CCCCN(C)C(=O)CSc1nc(NCc2ccc(OC)cc2)c2ccccc2n1	1.0	3.1	4.5%	-10.0	4.2
COc1ccccc1NC(=O)CNC(=O)c1ccc(F)cc1	-31.0	0.4	-4.3%	-11.5	4.7
O=C(Nc1ccccc1C(=O)N1CCOCC1)c1ccncc1	-15.5	-0.9	-0.8%	-7.6	6.0
Oc1ccc(Br)cc1-c1ccnn1-c1ccccc1	.	0.2	.	1.3	.
CN(CCCC(=O)Nc1ccc(OC(F)F)cc1)S(=O)(=O)c1ccc(F)cc1	.	-0.1	.	-12.2	.
COc1cc(C(=O)Oc2c(CN3CCOCC3)cc(Cl)c3cccnc23)cc(OC)c1OC	-36.3	-1.9	.	93.6	-2.5	Arbovirus anti repeat=-14.4
CCC(C)[C@H](NC(=O)C1CC(=O)N(c2ccc3c(c2)OCCO3)C1)C(=O)N1CCCCC1 (stereo not given in full)	.	1.5	.	7.5	.
CCOc1cc(C=O)ccc1OCC(N)=O	.	-5.3	-4.3%	1.4	-2.7
Cc1cc(/C=C2\SC(=O)N(C)C2=O)c(C)n1-c1ccc(S(N)(=O)=O)cc1	.	0.3	.	-8.8	.
COc1cccc(C2C3(C#N)C(N)=NC(OC)(OC)C23C#N)c1 (stereo not given)	-89.8	-0.6	-3.2%	0.3	4.1
CC(=O)N1CCN(C(=O)c2ccc3c(c2)S(=O)(=O)c2ccccc2C3=O)CC1	.	0.6	.	-4.9	.
Cc1ccc(C)c(-n2c(SCC(N)=O)nnc2-c2ccccn2)c1	-5.8	0.3	-7.4%	-0.4	-0.2
CCN(CC)CCNC(=O)c1cn(CC)c2ccc(S(=O)(=O)N(C)C3CCCCC3)cc2c1=O	.	-3.6	.	2.5	.
CC(C)(C)NS(=O)(=O)c1ccc(C(=O)Nc2ccc3c(c2)OCO3)cc1	.	-1.9	.	-2.6	.
CCOc1cccc(-c2nn3c(-c4ccccn4)nnc3s2)c1	-38.0	10.1	-10.0%	?	-6.5
Cc1ccc2[nH]c(C)c(CC(=O)O)c2c1	-31.9	-8.6	0.5%	6.9	-1.9
CCOC(=O)C1=C(N)N(c2ccc(N3CCCCC3)cc2)C(=O)C1	-16.6	-2.9	-16.5%	-2.4	1.8
O=C(Nc1ccc([N+](=O)[O-])cc1)N1CCCCCC1	.	2.9	.	-10.4	.
CC(NCc1ccccc1OC1CCCC1)c1ccccc1 (stereo not given)	.	3.6	11.2%	-1.2	.
COc1ccc(CNC(=O)CN(C(=O)CCC(=O)Nc2ccccn2)c2ccc(C)cc2)cc1	.	8.0	.	-1.2	.
CCOC(=O)N1CCC(NC(=O)CS(=O)Cc2nc(-c3ccc(Cl)cc3)oc2C)CC1 (stereo not given)	.	-0.5	.	-1.1	.
COc1ccccc1NC(=O)NC1CCCc2ccccc21 (stereo not given)	.	-2.8	.	-8.2	.
O=C(OCC1CCNCC1)c1ccc2c(c1)OCO2	.	-0.6	.	-6.3	.
O=C(Cc1ccc(F)cc1)N/N=C/c1ccc2c(c1)OCO2	.	-1.2	0.4%	-9.0	-1.7
OC(COc1ccc2c(c1)OCO2)CN1CCN(c2ccccc2)CC1 (stereo not given)	.	-0.7	-3.0%	2.0	-14.2
COc1ccc(C)cc1NC(=O)C1CCCN1S(=O)(=O)c1ccc2c(c1)CCC(=O)N2 (stereo not given)	-32.8	.	-2.1%	-2.6	-1.6

Quoted at random: 3 entries already listed, in no set order.
SMILES	YopH inh	RecA intein inh	Mtb growth	Mtb bLac sens	Arbovirus anti	others
NC(=O)C1CCN(C(=O)c2ccccc2CCc2ccccc2)CC1	.	0.8	.	-0.7	.
O=C(Nc1ccccc1C(=O)N1CCOCC1)c1ccncc1	-15.5	-0.9	-0.8%	-7.6	6.0
COC(=O)c1cc(OC)ccc1-c1ccc(OC)cc1	2.4	4.5	4.9%	9.3	-20.4

Next records.
SMILES	YopH inh	RecA intein inh	Mtb growth	Mtb bLac sens	Arbovirus anti	others
CCCCCOC(=O)C1=C(C)NC(=O)NC1c1ccc(N(C)C)cc1 (stereo not given)	.	-3.4	.	-1.1	.
COc1ccc(OC)c2[nH]c(=O)c(CCNC(=O)c3ccc4c(c3)OCO4)cc12	.	1.7	-0.2%	7.1	2.7
CC(=O)C(=Cc1ccc(C(=O)O)cc1)C(C)=O	.	-1.8	2.8%	0.9	2.1
CC1=C(C(N)=O)C(c2ccccc2F)n2nc(CCCO)nc2N1 (stereo not given)	.	0.5	.	2.5	.
Cc1cccc(NC(=O)C2CCN(S(=O)(=O)c3cccs3)CC2)n1	-19.4	2.0	8.1%	-13.3	-1.6
CC(C)CCn1c(-c2nonc2N)nc2ccccc21	1.7	2.9	6.1%	4.6	-6.0
Cn1c(SCc2ccc(F)cc2)nnc1-c1cccs1	-33.5	-0.4	1.1%	22.6	-1.4
Cc1ccsc1C(=O)OCC(=O)N1CCN(C(=O)c2ccco2)CC1	.	7.4	7.2%	-0.3	8.8
O=C1CCCC(=O)N1c1ccc(N2CCN(c3ccccc3)CC2)c([N+](=O)[O-])c1	-18.5	1.0	1.4%	-3.5	3.6
COc1cccc(C2=NOC(C(=O)NCc3ccccc3)C2)c1 (stereo not given)	-36.1	-1.1	.	-4.9	-18.9
CC(C)C(=O)Nc1cccc(NC(=S)NC(=O)C(c2ccccc2)c2ccccc2)c1	7.7	0.5	-3.9%	9.0	-19.2
Cc1cccc(C2c3[nH]c4ccccc4c3CCN2C(=O)Cc2nc(-c3ccccc3)n[nH]2)n1 (stereo not given)	.	7.0	79.4%	-3.1	-18.9
c1ccc(CN2C3=NCCCN3c3ccccc32)cc1	-19.9	1.7	-3.1%	-11.7	-5.1
CCS(=O)(=O)c1ccc(C(=O)NC2CC2)c(Cl)c1Cl	.	-3.1	3.1%	-2.3	-2.2
CC(=O)c1c(C)[nH]c(C(=O)COc2cc(C)cc(C)c2)c1C	-36.9	-0.5	5.7%	-5.2	-1.3
Cn1c(N)c(S(=O)(=O)N2CCN(c3ccccc3Cl)CC2)c(=O)n(C)c1=O	.	-1.8	.	-3.1	.
COCc1cc(=O)[nH]c2cc(NC(=O)C3CC3)c(C)cc12	-29.8	-1.6	-7.0%	-5.0	1.9
COc1cc(/C=N/NC(=O)COc2ccc(C)cc2)ccc1OC(=O)c1cccs1	-22.8	2.0	?	87.5	-6.4
CC(C)(C)Nc1nc(C(N)=O)nc(N2CCOCC2)n1	-19.5	-0.5	-8.3%	0.5	-4.9
O=C(N/N=C/c1ccc(O)cc1)c1[nH]c2ccc(Br)cc2c1-c1ccccc1	-30.2	25.6	?	99.1	0.0
CCCn1c2ccccc2c2cnn(CC(=O)NCCCN3CCCC(C)C3)c(=O)c21 (stereo not given)	.	-2.6	.	-4.3	.
CCc1ccc(OCC(=O)NC(C)(C)C)cc1	-8.7	0.5	-1.1%	2.5	-1.1
CCOc1ccc(OCC)c(NC(=O)CN2CCN(c3cccc(C)c3)CC2)c1	-10.2	3.9	.	-5.3	-5.6
CC(C)(C)CC(=O)Nc1cc2c3c(c1)CC(=O)N3CCC2	.	20.0	.	-4.3	.
COc1cc(/C=C2\C(=N)N3N=C(S(C)(=O)=O)SC3=NC2=O)cc(OC)c1OCCOc1ccc(C)cc1	.	13.9	.	2.2	.
O=C(NCCO)C(=O)c1c(-c2ccc(Cl)cc2)cc2ccccn12	.	2.7	-0.1%	0.3	6.3
CCOC(=O)c1cccc([P+](=O)O)c1	-105.3	-0.3	-2.1%	-4.3	2.9
Cc1c(N=NC2=C(O)CCCC2=O)c(=O)n(-c2ccccc2)n1C	.	-4.1	-7.2%	-6.8	-5.8
COc1cccc(N(C(=O)Cn2nnc3ccccc32)C(C(=O)NCc2ccco2)c2cccnc2)c1 (stereo not given)	-17.4	5.2	0.7%	.	0.2
CCN=C1SC(C(=O)Nc2ccc(Cl)c(Cl)c2)CC(=O)N1CC (stereo not given)	-25.4	.	.	-2.8	-7.0
COc1ccc(CNC(=O)COC(=O)c2ccccn2)cc1	.	0.4	1.1%	-3.3	15.5
CCOC(=O)C1(CCOc2ccccc2)CCN(Cc2ccccc2O)CC1	.	4.2	.	10.0	.
COc1ccc(C(=O)Nc2ccc(NC(=O)c3cnccn3)cn2)cc1	-16.4	-3.6	-17.7%	-3.3	2.9
O=C(/C=C/c1cccc([N+](=O)[O-])c1)Nn1c(-c2ccccc2F)nc2ccccc2c1=O	-29.1	0.9	2.2%	6.1	19.5
Cc1ccc(/C=C(\C#N)C(=O)N2CCCC2)c(C)c1	.	14.6	-5.6%	-0.6	4.8
CC(=O)N1N=C(c2cccs2)CC1c1ccco1 (stereo not given)	.	-5.3	-4.7%	0.3	3.9
COCCNC(=O)c1c(N)n(-c2ccccc2)c2nc3ccccc3nc12	1.5	i	-5.4%	2.2	1.1
CCc1ccc(OCC(=O)Nc2ccc(S(=O)(=O)N3CCCC3)cc2)c(Br)c1	-10.5	-0.6	0.4%	.	-1.2
COc1ccc(-c2cc(C)no2)cc1S(=O)(=O)N1CCOc2ccc(C)cc21	.	-0.4	.	0.2	.
O=C(CCC(=O)N1CCN(S(=O)(=O)c2ccc3ccccc3c2)CC1)Nc1cc(Cl)cc(Cl)c1	.	3.3	4.6%	-9.6	1.1
Cc1coc(C)c1C(=O)CC1(O)C(=O)N(CCc2ccccc2)c2ccccc21 (stereo not given)	-10.9	7.1	-7.0%	-13.7	-1.7
COc1ccc(Cl)cc1C(=O)NNC(=S)NC1CCCCC1	.	-1.3	-1.0%	0.8	.
CCNc1nc(NC(C)C)nc(NS(=O)(=O)c2ccc(Cl)cc2)n1	-34.1	1.3	14.2%	12.4	-4.5
CCN(CC)S(=O)(=O)c1ccc2c(c1)c(=O)c(C(=O)NCCOC)cn2C	4.8	-4.0	-10.1%	-7.0	6.9
COc1ccc(CCNC(=O)c2cc(C(=O)c3cc(Cl)ccc3O)cn(CCc3ccc(OC)cc3)c2=O)cc1	-2.8	6.7	11.8%	13.4	13.5
NC(=S)Nc1cnc2ccccc2c1	-27.5	-2.0	0.5%	67.6	-6.5
Cc1ccc(OCC(=O)Nc2ccc3c(c2)C(=O)N(CCC(=O)O)C3=O)cc1	.	0.3	.	-22.9	.
c1ccc(CN2CCCC3(CCCN(Cc4nc(COc5ccccc5)no4)C3)C2)cc1 (stereo not given)	.	-0.3	9.3%	3.5	9.0
Cc1cc(C(=O)NC(C)C2CCCO2)no1 (stereo not given)	.	1.1	-2.7%	0.5	5.3
COc1ccc(CNC(=O)CSc2ncnc3nc[nH]c23)cc1	-6.9	-2.3	-1.2%	-0.2	5.1
COCCn1c(COc2ccc(Cl)cc2)nnc1SCC(N)=O	-35.6	-2.2	0.7%	4.4	6.4
COc1ccc2c(c1)c(=O)c(C(=O)O)c(-c1ccc3c(c1)OCO3)n2C	-36.1	-1.1	-1.3%	-6.6	3.5
